From PubChem
VACV Venus inh – qHTS for Stage-Specific Inhibitors of Vaccinia Orthopoxvirus: Venus Reporter Primary qHTS. actives 0.46% (n = 330,000). Potency, µM (doses to about 36.5 µM), inactives show at the highest dose activity change, negative = inhibition, actives largely listed as inhibitors. AID 720580, 2013. Vaccinia virus Venus reporter expression, fluorescence; active means well fitted inhibition curve with a large enough effect; inconclusive means small, poorly fitted or top-dose-only effect; inactive means no such curve, though single readings can be large or run the other way; tested in A549 cells; note: nearly all actives have a fitted effect of over 30% in size; inactives centre near -10
VACV mCherry inh – qHTS for Stage-Specific Inhibitors of Vaccinia Orthopoxvirus: mCherry Reporter Primary qHTS | Vaccinia virus mCherry reporter infection, fluorescence; about a quarter of the inactives have no number | Potency, µM (doses to about 36.5 µM), inactives show top-dose activity change, negative = inhibition, usual class: inhibitors | actives 0.63% (n = 310,000); active = well fitted inhibition curve with a large enough effect; inconclusive = small, poorly fitted or top-dose-only effect; inactive = no such curve, though single readings can be large or run the other way; tested in A549 cells; note: nearly all actives have a fitted effect of over 35% in size; inactives centre near -10
Starred values were filed as active, the others as inactive; i = inactive; ? = inconclusive; · = not tested or not shown; [ ] = remark or other dose. % is set by controls: 0 for no effect and ±100 for the full control effect; potency is the fitted concentration of half-maximal effect. Compounds were not picked by outcome; overall some 0.82% were active at least once.

mol | VACV Venus inh | VACV mCherry inh
Cc1cn([C@H]2C[C@H](O)[C@@H](/C=C/C(=O)NCCc3cccnc3)O2)c(=O)[nH]c1=O | -5% | 14%
COc1ccc(CNC(=S)Nc2ccc(OC)cc2)cc1 | -11% | -10%
COc1cc(CNCCN(C)C)c(Br)cc1OCC(=O)NCc1ccccc1 | -3% | -3%
CC[C@@](C)(NS(=O)(=O)OCC(Cl)(Cl)Cl)c1ccccc1 | -15% | -12%
CCC(=O)NCCc1nc2cc(NC(=O)c3ccccc3OC)ccc2n1C | -9% | -11%
O=C(COC(=O)c1cccc(Br)c1)Nc1cccc(S(=O)(=O)N2CCCCC2)c1 | -2% | i
NC(=O)c1cc(C(=O)Cc2ccccc2)c[nH]1 | -17% | i
CC(C)CCNC(=O)NC(=O)COc1ncnc2sccc12 | -6% | -5%
COC(=O)/C(=C/c1ccccc1)NC(=O)c1ccco1 | 2% | -8%
COc1cc(OC)cc(C(=O)Nc2c(C)nn(-c3ccccc3)c2C)c1 | -9% | -10%
O=C(NCCOc1ccccc1Cl)C(=O)c1c[nH]c2ccccc12 | -1% | -2%
CC1CCN(C(=O)c2ccc(SCc3ccccc3F)c([N+](=O)[O-])c2)CC1 | -6% | -21%
O=C(NCc1ccc2c(c1)CCN2C(=O)c1ccccc1)c1ccco1 | -5% | -16%
CN(C)C(=O)C1(c2ccccc2)CCN(S(=O)(=O)c2ccccc2)CC1 | -5% | ·
COc1ccc(C2=Nc3ccccc3N(C(=O)c3ccc(C)cc3)C2C(=O)Nc2c(C)cccc2C)cc1 (stereo not given) | -12% | -12%
COc1ccc(NC(=O)CN2C(=O)NC3(CCCC3)C2=O)c(OC)c1 | -19% | -15%
Cc1cccc(N(Cc2ccccc2F)S(C)(=O)=O)c1 | -17% | ·
COc1cc(C(=O)N(C)CCOc2ccccc2)ccc1OCC(=O)Nc1cccc(C(F)(F)F)c1 | ? | ?
COC(=O)C(CC(C)C)NC(=O)c1ccc(F)cc1 (stereo not given) | -6% | -13%
COc1cc(/C=N/NC2=NS(=O)(=O)c3ccccc32)ccc1OC(C)=O | -3% | -8%
CCCCC1NC(C(=O)O)CS1 (stereo not given) | -13% | -4%
COc1ccc(NC2=Nc3ccccc3CC2)cc1 | -18% | -1%
O=C(C1CCN(S(=O)(=O)c2cccc3cccnc23)CC1)N1CCN(Cc2ccccc2)CC1 | 12% | 3%
CCn1c(SCC(=O)Nc2cccc(C)c2)nc2ccccc2c1=O | -2% | 5%
CCOC(=O)C1(CCc2ccccc2)CCN(Cc2nccn2CC)CC1 | -17% | -7%
CCCCNC(=O)NS(=O)(=O)c1ccc(C(=O)OC)o1 | -10% | ·
Cn1c(=O)c2c(n(Cc3ccccc3)c1=O)NC(=O)C2CC(=O)O (stereo not given) | -2% | -18%
CN(C)S(=O)(=O)Nc1ccc2c(c1)Cc1ccccc1-2 | -4% | -18%
Cc1cccc(OCc2n[nH]c(=S)n2Cc2ccccc2)c1 | 0% | i
CCOC(=O)C1CCCN(C(=O)c2sc(-c3ccccc3)nc2C)CC1 (stereo not given) | 2% | 6%
Cc1cc(C)n2cc(CSc3ccc(Br)cc3)nc2n1 | -4% | i
COc1ccc(NC(=O)CSc2nnnn2-c2ccc(F)cc2)cc1 | -8% | i
CC1(C(=O)NS(=O)(=O)c2cccc(OC(F)F)c2)CCN1C(=O)COc1ccc(Cl)cc1 (stereo not given) | 66%[activator] | -21%
Cc1ccc(S(=O)(=O)N2CCc3cc4c(cc3C2C)OCCCO4)cc1 (stereo not given) | -11% | i
CC(Sc1ncccn1)C(=O)NC1(C#N)CCCCC1 (stereo not given) | -11% | -14%
COc1cc(CNc2nccn3ccnc23)cc(OC)c1 | -1% | i
Cc1ccc(SC[C@H](Cc2ccccc2)N2CCN(CC(C)C)CCC2=O)cc1 | -20% | -23%
COc1ccc(Cl)cc1-c1n[nH]c(=S)n1C | 9% | ·
O=C(NCC(=O)N1CCN(Cc2ccccc2)CC1)c1ccc(Br)o1 | -16% | -4%
CN(C)/C=C1\Cc2ccccc2C1=O | -11% | -9%
CC(=O)N1CCc2c(sc(NC(=O)C3CCCN3S(=O)(=O)c3cccs3)c2C(N)=O)C1 (stereo not given) | -11% | i
O=C(NC1(C(F)(F)F)NC(=O)N(c2ccccc2)C1=O)c1cccs1 (stereo not given) | -16% | -26%
CCOC(=O)c1cc2c(=O)n3cccc(C)c3nc2n(Cc2ccco2)c1=NC(=O)c1ccccc1 | -6% | i
Cc1ccc(Nc2c([N+](=O)[O-])cc(C(=O)N3CC(=O)Nc4ccccc43)cc2[N+](=O)[O-])c(C)c1 | ? | ·
Cc1ccc(Cn2c(=O)n(-c3ccc(C)c(C)c3)c(=O)c3c(C)c(C)sc32)cc1 | -10% | -8%
CC(OC(=O)CCCNC(=O)c1ccc(Cl)cc1)C(=O)N(C)Cc1ccccc1 (stereo not given) | -15% | -6%
CC1CCCCC1NC(=O)c1ccc(S(=O)(=O)N2CCCC2)cc1 (stereo not given) | -10% | ·
COC(=O)[C@H]1C[C@@]2(O)CN(S(=O)(=O)c3ccc(C)cc3)C[C@@]2(OC(=O)Nc2c(C)noc2C)C[C@H]1C(=O)OC | -14% | -11%
Cn1c(=O)n(C/C=C/c2ccccc2)c(=O)c2c1nc1n2CCN1c1ccc(Cl)cc1 | -3% | -8%
CC1=CC2=NC(=O)/C(=C\c3cc(C)n(-c4cccc(Cl)c4)c3C)C(=N)N2O1 | -14% | -22%
O=C(NCCc1ccccc1)c1cnn2c(C(F)F)cc(C3CC3)nc12 | ? | ·
Cc1cccc(N2CC(C(=O)NCCC3=CCCCC3)CC2=O)c1C (stereo not given) | -16% | i
CCOc1ccc(N(CC(=O)NC2CCCC2)S(=O)(=O)c2c(C)noc2C)cc1 | 1% | 6%
O=C(c1ccc(C(F)(F)F)cc1)n1ccc(-c2cccs2)n1 | -19% | i
COc1ccccc1C(=O)/C=C/c1ccc(N2CCCCC2)c([N+](=O)[O-])c1 | ? | ?
Cc1ccc2c(c1)C1CN(C)CCC1N2C(=O)Cn1cnc2c1c(=O)n(C)c(=O)n2C (stereo not given) | -11% | ·
CCc1cccc(CC)c1N1C(=O)CSCC1=O | -11% | i
O=C(c1cccc(S(=O)(=O)N2CCN(c3ccc(F)cc3)CC2)c1)N1CCCC1 | -18% | -16%
CC(C)O/C(=N/S(=O)(=O)c1ccc(Cl)cc1)c1ccccc1 | 6% | -4%
O=C(Cc1c(F)cccc1Cl)N1CCN(C(=O)c2ccco2)CC1 | -7% | -4%

Reformatted: results already given.
molecule: O=C(c1ccc(C(F)(F)F)cc1)n1ccc(-c2cccs2)n1
  VACV Venus inh: -19% | VACV mCherry inh: i

molecule: Cc1ccc(Nc2c([N+](=O)[O-])cc(C(=O)N3CC(=O)Nc4ccccc43)cc2[N+](=O)[O-])c(C)c1
  VACV Venus inh: ? | VACV mCherry inh: ·

molecule: O=C(NCCc1ccccc1)c1cnn2c(C(F)F)cc(C3CC3)nc12
  VACV Venus inh: ? | VACV mCherry inh: ·

molecule: Cn1c(=O)n(C/C=C/c2ccccc2)c(=O)c2c1nc1n2CCN1c1ccc(Cl)cc1
  VACV Venus inh: -3% | VACV mCherry inh: -8%

Carrying on:
mol | VACV Venus inh | VACV mCherry inh
Cc1ccc(F)c([C@H]2C3C=CCC(c4ccccc4)C3C(=O)N2Cc2ccccc2)c1 (stereo not given in full) | ? | i
Cc1cccc(NC(=O)CCc2c(C)nn(-c3ccc(N4CCOCC4)nn3)c2C)c1 | -12% | -11%
CCN(CC)CCCC(C)N=C(c1ccccc1)c1c(O)n(C)c(=O)n(C)c1=O (stereo not given) | -11% | -17%
C=CCc1ccccc1OCCCCN1CCCC1 | -14% | -10%[1.46 µM]
C=CC[C@@H](CC(=O)N[C@@H](CO)Cc1ccccc1)C(=O)N[C@H](COC(=O)[C@@H](CC=C)Cc1ccc(F)cc1)Cc1ccccc1 | -15% | i
O=C(NCc1cccc(Br)c1)C1CCN(C(=O)c2sccc2-n2cccc2)CC1 | -6% | -13%
Cc1ccc(NC(=O)CN2C(=O)COc3ccc(S(=O)(=O)N4CCCCC4)cc32)cc1N(C)C | -6% | -10%
O=[N+]([O-])c1ccc(-c2csc(Nc3ccccc3)[n+]2Cc2ccccc2)cc1 | -3% | -6%
CCNC(=O)CSc1nnc(-c2cccc(S(=O)(=O)N3CCOCC3)c2)o1 | ? | 11µM*
COc1cc(Cl)c(C)cc1NC(=O)COc1cc(C)nc(C(C)C)n1 | -21% | -20%
CN(C(=O)c1ccc(-c2ccccc2)cc1)C1CCCCC1 | 5%[7.34 µM] | -17%[7.34 µM]
CCOC(=O)C1CCCN(C(=O)c2cnn(-c3ncc4c(n3)-c3ccccc3CC4)c2C)C1 (stereo not given) | 5% | -12%
CCOc1ccccc1CNc1ncnc2onc(-c3ccc(F)cc3)c12 | -5% | -1%
COc1cc(NC(=O)c2cc3nc(C)cc(C)n3n2)c(OC)cc1Cl | 7% | ·
O=C1C2C3C=CC(C4CC34)C2C(=O)N1Cc1ccco1 (stereo not given) | -11% | -11%
Oc1ccc(Cl)cc1C=Nc1ccc2c3c(cccc13)CC2 | -11% | -25%
CCOC(=O)[C@]12CCC=C1N(Cc1ccc3c(c1)OCO3)C(=O)[C@H](CC(=O)NCc1ccc(C)o1)C2 | -9% | -6%
CCOc1ccc(N(C(=O)c2cc3ccccc3oc2=O)C2C=CS(=O)(=O)C2)cc1 (stereo not given) | -7% | -4%
Cc1cc(SCC(=O)OCC(=O)N(C)C2CCS(=O)(=O)C2)c(C)cc1Br (stereo not given) | -14% | -18%
COc1cccc(NC(C)(C)c2nnnn2-c2c(C)cccc2C)c1 | 3% | -11%
CCOC(=O)c1ccc(NC(=O)CSc2nnc(CCc3ccc(C)o3)n2-c2ccccc2)cc1 | -17% | -29%
C=CCn1c(N)c(C(=O)OC(C)(C)C)c2nc3ccccc3nc21 | -23% | ?
O=C(CN1CCCCC1)c1ccccc1 | -7% | -13%
Cc1ccc(C)n1-n1cnc2sc3c(c2c1=O)CCCCC3 | -18% | -18%
Cc1ccccc1Nc1nnc(SCC(=O)NC2CCCc3ccccc32)s1 (stereo not given) | -12% | -19%
O=C(CNCCO)Nc1ccc(F)c(Cl)c1 | -5% | -12%
CCOC(=O)c1c(C)[nH]c(C(=O)N2CCCC(C(=O)c3ccccc3OC)C2)c1C (stereo not given) | -26% | -5%
CCOC(=O)C(C)CC(C)C(=O)N1CCOCCN(C(=O)C(C)CC(C)C(=O)OCC)CCOCC1 (stereo not given) | -11% | -16%
O=C1c2ccccc2C(=O)N1c1ccc(S(=O)(=O)N2CCOCC2)c2ccccc12 | -16% | -1%
C=C(C)[C@@H]1CCC2(C(=O)O)CC[C@]3(C)[C@H](CC[C@@H]4[C@@]5(C)CCC(=O)C(C)(C)[C@@H]5CC[C@]43C)[C@@H]12 (stereo not given in full) | ? | ?
O=C(c1[nH]c(C(F)(F)F)nc1-c1ccccc1)N1CCN(c2c(Cl)cncc2Cl)CC1 | 5% | 7%
CS(C)(=O)=O | ? | ?
CCN1CCN(C(CNS(=O)(=O)c2ccc(C)cc2)c2cccnc2)CC1 (stereo not given) | 0% | -10%
Cc1ccc2nc(/C(C#N)=C/c3ccc(O)c(O)c3)[nH]c2c1 | 35%[activator] | 5.6µM*
COc1cccc(CNC(=O)COC(=O)c2cccc(S(=O)(=O)N3CCCC3)c2)c1 | -9% | -13%
C/C=C/c1ccc(OCC(O)CN2CCCCC2CC)c(OC)c1 (stereo not given) | -11% | -8%
O=C(NC(c1ccc(F)cc1)c1ccc2ccccc2n1)C1CCN(CCOc2ccc(Cl)cc2Cl)CC1 (stereo not given) | -21% | 4%
CN(C(=O)c1ccnn1C)C1CCCN(Cc2ccccc2F)C1 (stereo not given) | 3% | -19%
Cc1ccc(C(C)C)c(OCc2ccc(-c3nnco3)cc2)c1 | -16% | ·
O=C(NC1CCCc2ccccc21)c1ccc2c(c1)sc1nc(-c3ccccc3)cn12 (stereo not given) | -11% | -15%
Cc1ncc(C[n+]2csc(CCOC(=O)CC34CC5CC(CC(C5)C3)C4)c2C)c(N)n1 | -13% | i
Cc1nc2c(-c3ccc(F)cc3)c(C)nn2c(C)c1CCC(=O)Nc1ccccc1F | 1% | 9%
COc1ccccc1CNC(=O)CSc1ccc(-c2cccs2)nn1 | -10% | -18%
O=C1C(=O)N(O)C2CCCCC2N1O (stereo not given) | 2% | -11%
CC(Oc1ccc2ccccc2c1)C(=O)NNC(=O)Nc1ccccc1 (stereo not given) | -16% | -22%
COC(=O)c1cc(Cl)c(NC(=O)C(C)C)cc1OC | -9% | -6%
CCOC(=O)c1c(C)nc(C)c(C(=O)OCC)c1-c1ccco1 | -16% | -21%
O=C(COC(=O)CCC(=O)c1ccc(Cl)cc1)NCc1ccc(F)cc1 | -4% | -13%
O=C(C1CC1)N1c2ccccc2Sc2ccccc21 | -14% | -22%
O=C(C(Br)=Cc1ccccc1)c1ccccc1 | ? | ?
